FGF22 binding: binders of human FGF22 protein, primary screen, FGF22 synaptogenesis inhibitor project, biophysical, thermal shift, single point. 1.5% of 340,000 active. Fibroblast growth factor 22 (Homo sapiens), Q9HCT0. recombinant FGF22 thermal shift, SYPRO orange fluorescence; percent of sucrose octasulfate shift, DMSO zero. calls only at 9.99 µM;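 active means melting point raised past a set limit in the mean and every replicate; inconclusive means no clear call; three in four hits are not shown here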
Target sequence (Q9HCT0 whole entry, looked up): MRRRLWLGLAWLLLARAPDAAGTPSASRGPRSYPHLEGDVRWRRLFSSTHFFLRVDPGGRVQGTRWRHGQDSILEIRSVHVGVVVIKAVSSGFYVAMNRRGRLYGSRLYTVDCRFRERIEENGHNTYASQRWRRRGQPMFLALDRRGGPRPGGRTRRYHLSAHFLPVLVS
AF4-AF9 inh: inhibitors of AF4 peptide binding to AF9, primary screen, biochemical, AlphaScreen, biotin-AF4 peptide, FLAG-AF9, single point; inhibition, % at 10 µM; Protein AF-9 (Homo sapiens), P42568; 0.47% of 350,000 active;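 active means every replicate reaching a set inhibition limit, whatever the replicate mean, cut at about 25% in these data; inconclusive means mean inhibition reaches that limit but some replicates miss it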;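 further: 0% = plate neutral control median and 100% = total signal loss; the record names both 10 and 1 µM as test concentration; the first replicate is given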
E coli growth: E. coli growth inhibition, primary screen, OD600. Escherichia coli growth, 23 h; hits give low values. OD600 absorbance (test concentration not listed). 0.21% of 330,000 active. AID 1053175, 2014;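 active means OD600 absorbance below the run mean of sample wells minus 3.6 SD, in any replicate, cut at about 0.56 in these data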;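 further: stock transfer was 300 nL into about 60 µL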
RanGTP-Imp inh: inhibitors of RanGTP-importin-beta interaction, primary screen, biochemical, FRET, CFP-Ran, YFP-importin-beta, homogeneous; 1.1% of 300,000 active; cell-free CFP-Ran/YFP-importin-beta FRET ratio; Ran GTPase (GTP-bound) - importin-beta complex; inhibition, % (test concentration not listed);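 active means most replicates above 15%; inconclusive means exactly half above 15%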;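 further: 0% = DMSO wells and 100% = Ran loaded with GDP instead of GTP; wells of about 40 µL received 100 nL stock; the first replicate is given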
HNF4A DNA FP: change in binding of human HNF4A to DNA, primary screen, biochemical, fluorescence polarization, FITC-DNA; AID 1224865, 2016; activity change, % at 10 µM; 1 h; 0.3% of 360,000 active; Hepatocyte nuclear factor 4-alpha (Homo sapiens), P41235; in the data active means activity change above about 30%, passing the limit was not always enough;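 further: controls were the assay level and a saturating level of protein; the project sought stronger binding though the title names inhibitors; some compounds called inactive have numbers as strong as hits; positive values seem to mean higher polarization but the record does not say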
Target sequence (P41235 whole entry, looked up): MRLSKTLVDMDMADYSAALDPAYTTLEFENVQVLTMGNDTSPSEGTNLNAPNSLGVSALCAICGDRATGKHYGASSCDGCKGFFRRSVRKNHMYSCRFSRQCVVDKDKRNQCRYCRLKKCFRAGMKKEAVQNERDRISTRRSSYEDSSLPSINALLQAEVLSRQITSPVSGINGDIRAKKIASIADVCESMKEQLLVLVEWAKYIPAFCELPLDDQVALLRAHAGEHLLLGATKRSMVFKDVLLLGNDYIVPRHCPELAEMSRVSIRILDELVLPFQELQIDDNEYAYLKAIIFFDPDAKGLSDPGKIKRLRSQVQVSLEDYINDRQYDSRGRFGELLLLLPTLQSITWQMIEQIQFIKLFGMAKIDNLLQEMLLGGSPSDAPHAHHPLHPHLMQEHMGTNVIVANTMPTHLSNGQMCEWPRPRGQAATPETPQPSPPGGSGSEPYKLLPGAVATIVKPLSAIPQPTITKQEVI
UCH37 inh: inhibitors of human UCH37 deubiquitinase, primary screen, biochemical, Ub-AMC cleavage, fluorescence; AID 588478, 2011; purified proteasome/UCH37; Ubiquitin carboxyl-terminal hydrolase isozyme L5 (Homo sapiens), Q9Y5K5; 0.33% of 330,000 active; inhibition, % (test concentration not listed);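 active means mean of two replicates above 20%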;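 further: 0% = compound-free wells with enzyme and 100% = wells lacking proteasome; stock transfer was 100 nL into about 20 µL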
Target sequence (Q9Y5K5 whole entry, looked up): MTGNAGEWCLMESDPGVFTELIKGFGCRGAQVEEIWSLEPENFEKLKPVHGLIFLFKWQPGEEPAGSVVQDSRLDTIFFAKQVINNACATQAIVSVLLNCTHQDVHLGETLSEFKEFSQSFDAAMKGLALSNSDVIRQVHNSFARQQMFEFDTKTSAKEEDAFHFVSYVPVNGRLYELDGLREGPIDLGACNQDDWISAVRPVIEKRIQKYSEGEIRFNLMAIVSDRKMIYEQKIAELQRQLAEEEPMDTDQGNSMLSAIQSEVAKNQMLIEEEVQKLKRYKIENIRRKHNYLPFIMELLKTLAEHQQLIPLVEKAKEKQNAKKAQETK
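Signal – fluorescence, ex 355 nm, em 460 nm · System – Proteasome-bound UCH37 · Input – 0.15 nM proteasome as dispensed · Timing – 30 min preincubation with enzyme, 25 min cleavage at room temperature · Read-out basis – percent inhibition of cleavage signal versus uninhibited and no-proteasome wells · Medium – Tris-HCl pH 7.4 with ATP-MgCl2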
Vif A3G: inhibitors of Vif binding to APOBEC3G peptide, primary screen, biochemical, TR-FRET, GST-Vif 1-94, biotin-A3G peptide, dose response retest (AID 1117319); TR-FRET GST-Vif / biotin-A3G peptide binding; higher % means a stronger effect; test concentration not given here; strong numbers were not always called active; inhibition, %, or IC50 in µM where a hit was titrated; 0.57% of 260,000 active;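 active means above the screen mean plus three standard deviations and confirmed in dose response; inconclusive means results disagree or hit not tested in dose response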;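 further: Vif residues 1-94 fused to GST binding biotinylated APOBEC3G peptide 110-148; 0% = full assay without inhibitor and 100% = GST in place of GST-Vif; retest series ran down from 100 µM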
An asterisk follows results filed as active; i = inactive; ? = inconclusive; · = no result given; + = active, no number; & = joins results of further samples.

Fields: FGF22 binding | AF4-AF9 inh | E coli growth | RanGTP-Imp inh | HNF4A DNA FP | UCH37 inh | Vif A3G
CCCCNC(=O)CSc1nc2cc3c(cc2c(=O)n1CCC(=O)NCCc1ccc(OC)c(OC)c1)OCO3
  i | 0.0 | 0.74 | -1.2 | 6.2 | -0.7 | -5%
O=C(CCc1nnc(CCCCc2ccccc2)o1)N1CCCCC1CCO (stereo unspecified)
  i | -0.1 | 0.67 | 1.0 | 1.2 | 2.0 | 31%
O=C1C(Cl)=C(Nc2ccccc2O)C(=O)N1CCc1ccccc1
  · | · | 0.66 | 0.9 | 13 | 2.7 | ?
Cc1ccc(/C=C/C(=O)Nc2nccs2)o1
  i | -3.2 | 0.68 | 9.6 | -0.2 | 8.7 | ?
O=C(OC1CCOC1=O)C1CCN(S(=O)(=O)c2c(Cl)cccc2Cl)CC1 (stereo unspecified)
  i | 4.2 | · | 0.4 | 1.6 | · | ·
O=C(COC(=O)Cn1cnc2ccccc2c1=O)Nc1ccc(Cl)cc1
  i | -0.4 | 0.67 | · | -1.0 | 0.2 | 12%
Fc1cccc(CN2CCN(Cc3nc(-c4cnccn4)no3)CC2)c1
  · | -3.3 | 0.69 | 1.0 | -1.8 | 2.5 | 5%
O=C(Nc1ccccc1)c1cc(C2CCCN(C(=O)c3ccc4c(c3)CCO4)C2)on1 (stereo unspecified)
  i | 0.2 | · | · | -1.4 | · | ·
CCOC(=O)[C@@H]1[C@H]2COc3ccccc3[C@H]2N2C(=O)N(c3ccc(C)cc3)C(=O)[C@]12C
  i | 2.1 | · | -3.2 | -2.1 | 1.3 | ·
O=C(NCc1ccco1)c1ccc(Br)s1
  · | · | 0.64 | ? | 2.1 | 1.2 | 10%
Cc1ccc(C2CC(c3ccccc3)=NN2C(=S)Nc2ccccc2)o1 (stereo unspecified)
  · | · | 0.74 | 4.2 | 0.4 | 1.8 | ?
CCN(CC)CCCNC(=O)c1cc(-c2cccc(Cl)c2)on1
  · | · | 0.64 | 5.7 | -1.7 | 1.8 | 2%
COc1ccc(-n2nc3c(c2NC(=O)c2ccc(Br)cc2)CS(=O)C3)cc1 (stereo unspecified)
  i | -1.1 | 0.78 | 7.2 | -1.8 | 7.3 | 1%
N#Cc1ccc(CSc2nnc(NC(=O)CCc3nc4ccccc4c(=O)[nH]3)s2)cc1
  i | -13 | 0.67 | -1.8 | 6.8 | 0.6 | -6%
CC1CCN(C(=O)COC(=O)c2cccc(S(=O)(=O)N3CCOCC3)c2)CC1
  i | -4.6 | · | · | -0.7 | · | ·
CCSCCNC(=O)c1cncc(Br)c1
  · | · | 0.71 | 0.3 | 4.2 | 4.7 | -13%
Cc1cc(C)c(N=C2C(=O)Nc3ccccc32)c(C)c1
  i | 7.5 | 0.59 | 5.6 | 1.7 | 5.0 | ·
Cc1c(Cl)cccc1NC(=O)CNC(=O)c1ccc2c(c1)OCCO2
  i | 0.9 | 0.62 | · | 3.9 | 0.2 | ·
CCN1CCN(C(=O)c2oc(=O)c3ccccc3c2-c2ccc(C)cc2)CC1
  i | 1.2 | 0.75 | 0.5 | 3.6 | 1.6 | -4%
CC1=C(C(=O)N(C)C)CC(CC(=O)NC2CCCC2)C(=O)N1CCC1=CCCCC1 (stereo unspecified)
  i | -15 | · | · | -1.1 | · | -5%

Structures listed so far with an aryl methoxy group:
Fields: FGF22 binding | AF4-AF9 inh | E coli growth | RanGTP-Imp inh | HNF4A DNA FP | UCH37 inh | Vif A3G
CCCCNC(=O)CSc1nc2cc3c(cc2c(=O)n1CCC(=O)NCCc1ccc(OC)c(OC)c1)OCO3
  i | 0.0 | 0.74 | -1.2 | 6.2 | -0.7 | -5%
COc1ccc(-n2nc3c(c2NC(=O)c2ccc(Br)cc2)CS(=O)C3)cc1 (stereo unspecified)
  i | -1.1 | 0.78 | 7.2 | -1.8 | 7.3 | 1%

Remaining list, next part
Fields: FGF22 binding | AF4-AF9 inh | E coli growth | RanGTP-Imp inh | HNF4A DNA FP | UCH37 inh | Vif A3G
CCOc1ccc(CCNC(=O)C2(c3ccccc3)CC2)cc1OCC
  i | -2.0 | 0.67 | -1.1 | -0.8 | 1.9 | ·
CCOc1ccc(-c2c[n+](=O)c3c(n2[O-])CCCC3)c(OCC)c1
  · | · | 0.66 | 1.0 | -4.6 | 1.2 | -3%
COc1ccc(CC(=O)N2CCCC(C)C2)cc1 (stereo unspecified)
  · | · | 0.69 | -0.6 | 0.0 | -0.8 | 6%
O=C(N/N=C/c1ccc(OCC(=O)N2CCCCC2)cc1)c1ccccc1
  · | · | · | -0.8 | -0.8 | · | -5%
C=C(C)Cn1c(-c2ccncc2)n[nH]c1=S
  i | -7.6 | 0.67 | -0.7 | 3.0 | -0.1 | ·
CC(=O)Nc1cccc(N=NN2CCCCC2)c1
  · | -0.4 | 0.65 | · | 0.9 | 2.6 | -3%
Cc1ccc(C(=O)/C=C/C(=O)O)cc1
  · | · | 0.65 | 3.0 | 3.1 | 1.1 | -2%
NC(=O)c1ccccc1NCC(=O)c1ccc(F)cc1
  i | -0.3 | 0.63 | 2.7 | 2.7 | -72 | 5%
Cc1ccccc1NC(=S)NCc1ccc(Cl)cc1
  i | -0.5 | 0.69 | -0.7 | 3.9 | 3.0 | ·
COc1ccc(NC(=O)N(C)C[C@H]2OCCCC[C@H](C)Oc3ccc(NC(=O)Nc4ccc5c(c4)OCO5)cc3C(=O)N([C@@H](C)CO)C[C@@H]2C)cc1
  i | 6.2&6.3 | · | · | 0.4 | · | 7%
O=C(N/C(=C\c1ccc([N+](=O)[O-])cc1)C(=O)N1CCCCC1)c1ccccc1
  · | -1.6 | · | -1.0 | -0.5 | 5.7 | -3%
O=c1ccc2cc(S(=O)(=O)N3CCN(c4ccc(Cl)cc4)CC3)ccc2o1
  i | -4.4 | 0.71 | 5.9 | 0.2 | -0.5 | ·
O=C(COC(=O)c1cncc(Br)c1)NC12CC3CC(CC(C3)C1)C2
  i | -1.1 | · | · | 4.0 | · | ·
CC(C)C12CN3CC(C(C)C)(CN(C1)C3c1ccccc1)C2O (stereo unspecified)
  · | 1.5 | 0.66 | -1.4 | 1.0 | 0.3 | 0%
CC1CCCCN1C(=O)c1ccc(S(=O)(=O)N2CCCCC2C)cc1 (stereo unspecified)
  · | · | 0.73 | -6.0 | -1.3 | -5.5 | 72%
CCOC(=O)CC(NC(=O)c1cc2cc(Br)ccc2oc1=O)c1cccc([N+](=O)[O-])c1 (stereo unspecified)
  · | · | 0.65 | 2.4 | -2.4 | 1.0 | -2%
O=C(NCCN1CCOCC1)/C(=C/c1ccco1)NC(=O)c1ccccc1
  i | -0.9 | 0.67 | 0.4 | 4.2 | 3.4 | ·
Cc1ccc(S(=O)(=O)NCCc2nnc3ccc(N4CCOCC4)nn23)cc1
  i | 2.8 | · | · | -1.3 | · | ·
O=C(N/C(=C\c1ccco1)C(=O)N1CCOCC1)c1ccccc1Cl
  i | -1.7 | · | -3.2 | 1.5 | · | ·
CC(C(=O)Nc1ccc(N(C)C)cc1)N1C(=O)c2ccccc2S1(=O)=O (stereo unspecified)
  i | 6.0 | 0.69 | -1.4 | 0.5 | -0.2 | 6%
Cc1ccc(N2CC(C(=O)OCc3ccccc3F)CC2=O)cc1 (stereo unspecified)
  · | · | 0.74 | ? | -0.8 | 1.4 | 1%
CCCCCCCCN1C(=O)[C@H](CC(=O)NCc2ccc(C)o2)C[C@@]2(C(=O)OC)CCCCC=C12
  i | 2.0 | · | · | 3.8 | · | ·
CC1CCN(CCc2nc3cc(NC(=O)COc4ccccc4)ccc3n2C)CC1
  i | 2.6 | 0.65 | -0.3 | 0.6 | 1.2 | ·
O=C(O)c1cccc2c1Oc1ccccc1S2(=O)=O
  i | -0.1 | 0.69 | · | -1.2 | 4.5 | 59%
O=C(NCc1ccccc1)C1CCN(S(=O)(=O)c2cccc3cccnc23)CC1
  i | 3.4 | 0.74 | · | -1.9 | 6.5 | -2%
COC(=O)c1ccc(CSc2ncnc3sc(C)c(C)c23)o1
  · | · | 0.7 | -3.4 | 3.2 | 2.6 | 15%
COc1ccc2nc(C)cc(Nc3ccc(N4CCN(C)CC4)cc3)c2c1
  i | 15 | 0.67 | -2.1 | -15 | 13 | 15%
CCc1cc(=O)oc2cc(OC(=O)c3ccco3)ccc12
  i | -1.7 | 0.69 | 5.5 | -2.1 | i | ·
CCN1C(=O)C(CC(=O)Nc2ccc(OC)cc2)N(CCc2ccccc2)C1=S (stereo unspecified)
  i | 0.6 | 0.69 | · | 0.5 | 5.4 | 3%
CN(CC(O)CN1CCOCC1)S(=O)(=O)O (stereo unspecified)
  i | -5.6&-0.4 | 0.7&0.68 | 3.9&-3.1 | 2.6&2.2 | 5.1&2.3 | ?
CC(C)(C)OC(=O)COc1cc(F)ccc1[N+](=O)[O-]
  i | -4.3 | 0.76 | · | 1.9 | -5.7 | ·
Cc1ccnc(SCC(=O)c2cccc([N+](=O)[O-])c2)n1
  i | -1.3 | 0.66 | 2.6 | -4.6 | 0.3 | 7%
COc1cc(OC)cc(C(=O)N(CN2CCCC2=O)c2ccccc2OC)c1
  · | · | 0.74 | ? | -4.8 | -1.0 | 7%
O=c1c2ccccc2nc(COc2ccccc2)n1/N=C/c1ccc(O)c(O)c1
  i | 13 | · | 1.5 | -0.7 | · | ?
Cc1cccc(Cn2c(NC3CCCC3)nc3c2c(=O)[nH]c(=O)n3C)c1
  i | -0.2 | · | · | -4.8 | · | 3%
N#Cc1c(C(F)(F)F)cc(-c2ccco2)nc1SCc1ccccn1
  · | · | 0.72 | 3.9 | 7.2 | -36 | ?
COC(=O)c1ccc(OCC2c3cc(OC)c(OC)cc3CCN2C(C)=O)cc1 (stereo unspecified)
  i | -2.0 | 0.7 | 2.4 | -1.9 | 5.5 | 3%
CCN(CC)CCCNC(=O)CCn1nc(-c2ccc(Cl)cc2)ccc1=O
  i | -0.6 | 0.65 | 0.6 | 5.6 | 4.1 | -4%
Cc1ccccc1C(=O)NCC(=O)OC(C)C(=O)Nc1cccc(S(=O)(=O)N2CCOCC2)c1 (stereo unspecified)
  + | 2.1 | 0.68 | · | 1.6 | 4.8 | ·
O=C(N/C(=C/c1ccc(Br)cc1)C(=O)N1CCCC1=O)c1ccco1
  i | -3.5 | 0.68 | 5.5 | 1.4 | 2.5 | 12%
O=c1cc(CSc2ccccn2)nc(N2CCN(c3ccccc3)CC2)[nH]1
  · | · | 0.65 | 1.7 | 0.6 | 1.8 | -2%
CC1Cc2cc(S(=O)(=O)N3CCC(C(=O)Nc4ccccn4)CC3)ccc2N1C(=O)C1CCC1 (stereo unspecified)
  i | 4.6 | 0.7 | -1.1 | 0.0 | 3.2 | ·
O=C(C[n+]1ccccc1)Nc1c(Cl)cc(Cl)cc1Cl
  i | -0.1 | 0.65 | 2.4 | -0.2 | 4.8 | -2%
O=C(OCc1ccc(Cl)cc1Cl)c1cccnc1Cl
  · | · | 0.69 | -1.2 | 1.3 | 2.2 | -8%
Cc1ccc(O)c(NC(=O)c2cc(-c3ccc(F)cc3)on2)c1
  i | -4.9 | 0.7 | -3.6 | 0.3 | -0.5 | 0%

Screening data: PubChem BioAssay, several laboratories

Not all compounds are listed, so the mix of outcomes need not match the whole.
